PINK1 expr mod: A Quantitative High throughput Screen to Identify Chemical Modulators of PINK1 Expression; PINK1 immunofluorescence, high-content cytometry, 24 h; Potency, µM (top dose mostly 76.6 µM), without a hit: top-dose activation (PINK1 increase), usual class: activators; 0.2% of 410,000 active; AID 624263, 2012; active = well fitted activation curve with a large enough effect; inconclusive = small, poorly fitted or top-dose-only effect; inactive = flat fitted curve, though single readings scatter; cell line not stated here;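 also: potency is read from the fitted curve at half-maximal effect; % of control where 0% means no effect; nearly all actives have a fitted effect of over 65% in size; a mitochondrial uncoupler was the plate control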
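PINK1 protein level read as immunofluorescence by microplate cytometer in a fixed, stained stable cell line after 24 h exposure to five compound concentrations, with CCCP as control.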
TRPML1 blocker: qHTS for Inhibitors of the Human Mucolipin Transient Receptor Potential 1 (TRPML1); Mucolipin-1 (Homo sapiens), Q9GZU1; AID 624415, 2012; TRPML1-inducible cells, Ca2+ dye fluorescence, FDSS; stronger effect = lower value; inhibition of EC80 agonist-evoked calcium signal; activity change, negative = inhibition, % (concentration not given with the values); 0.02% of 390,000 active; in the data active means activity change below about -50%; inconclusive means about -30% to -50%; inactive means above about -30%;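 also: stimulus is agonist 54-4 at its EC80 concentration; % is scaled to controls: 0 for no effect and ±100 for the full control effect; compound concentration not given in the record; the text of the record puts the active cut at -80%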
Target sequence (Q9GZU1 whole entry, looked up): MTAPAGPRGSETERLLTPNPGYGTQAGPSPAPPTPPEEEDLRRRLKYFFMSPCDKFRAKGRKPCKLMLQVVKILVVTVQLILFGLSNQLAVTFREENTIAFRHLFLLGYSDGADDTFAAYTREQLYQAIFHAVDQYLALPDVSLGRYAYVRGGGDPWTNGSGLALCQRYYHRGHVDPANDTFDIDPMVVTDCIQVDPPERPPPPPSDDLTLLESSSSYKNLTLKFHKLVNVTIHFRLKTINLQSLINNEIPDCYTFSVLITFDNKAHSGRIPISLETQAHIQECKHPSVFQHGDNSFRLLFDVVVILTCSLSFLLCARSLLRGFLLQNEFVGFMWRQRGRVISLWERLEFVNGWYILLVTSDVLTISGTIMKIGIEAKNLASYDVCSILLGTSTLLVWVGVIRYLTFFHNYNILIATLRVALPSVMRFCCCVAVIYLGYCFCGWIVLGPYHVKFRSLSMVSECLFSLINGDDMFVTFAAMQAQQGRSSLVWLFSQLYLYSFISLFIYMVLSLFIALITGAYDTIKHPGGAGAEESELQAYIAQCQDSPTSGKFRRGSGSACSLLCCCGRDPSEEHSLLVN
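Calcium fluorescence in TRPML1-DL cells induced overnight with Tet: a 110 s read after compound pin addition, then a 110 s antagonist read after challenge with 54-4 at 4 uM final (EC80).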
CtBP-E1A inh: qHTS Assay for Inhibitors of the CtBP/E1A Interaction; AlphaScreen GST-E1A/His-CtBP binding, 1536-well; stronger effect = lower value; control for the full effect not named in the record; activity change, % (test concentration not listed); 0.49% of 340,000 active; AID 651724, 2012; in the data active means activity change below about -65%; inconclusive means about -30% to -65%; inactive means above about -30%; also: % is scaled to controls: 0 for no effect and ±100 for the full control effect; compound concentration not given in the record
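AlphaScreen with 125 nM GST-E1A and 125 nM His-CtBP (5X stocks) in Tris pH 8.0, 300 mM NaCl, BSA, Tween 20, TCEP. Compounds preincubated 2 h at 37 deg C, then glutathione donor/nickel acceptor beads added for 1 h at 37 deg C in dark.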
Six1-Eya2 inh: qHTS Assay for Inhibitors of the Six1/Eya2 Interaction. Homeobox protein SIX1 (Homo sapiens) + Protein phosphatase EYA2 (Homo sapiens), …. AID 651725, 2012. activity change, % (concentration not given with the values). 0.56% of 360,000 active. AlphaScreen GST-Six1/His-Eya2 binding, biochemical; stronger effect = lower value; control for the full effect not named in the record; in the data active = activity change below about -65%; inconclusive = about -30% to -65%; inactive = above about -30%; also: % is scaled to controls: 0 for no effect and ±100 for the full control effect
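Compounds are tested against tagged Six1 and Eya2 proteins bridged by glutathione donor and nickel acceptor beads; after a one-hour incubation at 37 °C without light, AlphaScreen emission is recorded.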
D2 ag: Beta-Arrestin HTS for Positive Allosteric Modulators of the Human D2 Dopamine Receptor: Agonists | D(2) dopamine receptor (Homo sapiens), P14416 | DiscoveRx PathHunter D2 beta-arrestin, luminescence, 90 min; 100% = 57 uM dopamine signal | activation, % (concentration not given with the values) | 0.084% of 360,000 active | AID 624465, 2012; in the data active = activation above about 40%; inconclusive = about 15% to 40%; inactive = below about 15%; also: compound concentration not given in the record; the text of the record calls up to 30% inactive
Target sequence (P14416 whole entry, looked up): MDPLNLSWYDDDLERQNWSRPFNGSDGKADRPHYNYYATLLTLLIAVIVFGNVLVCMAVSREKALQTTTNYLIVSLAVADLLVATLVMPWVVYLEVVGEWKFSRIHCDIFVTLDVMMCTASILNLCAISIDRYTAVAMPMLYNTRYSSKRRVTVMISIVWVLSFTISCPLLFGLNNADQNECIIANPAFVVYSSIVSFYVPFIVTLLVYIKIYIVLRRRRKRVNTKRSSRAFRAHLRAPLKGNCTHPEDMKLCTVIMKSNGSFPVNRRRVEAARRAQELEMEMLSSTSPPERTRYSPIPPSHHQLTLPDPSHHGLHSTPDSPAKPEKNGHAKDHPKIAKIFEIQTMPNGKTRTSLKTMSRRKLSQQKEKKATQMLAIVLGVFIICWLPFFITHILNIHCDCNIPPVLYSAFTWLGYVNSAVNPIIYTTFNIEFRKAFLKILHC
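Agonist mode: compounds alone added to overnight-plated D2 PathHunter cells for 90 min at 37 C, with 57 uM final dopamine (EC100) defining full response. Beta-arrestin recruitment detected by chemiluminescent reagent, read after 1 h at ambient temperature.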
TRPML1 agonist: qHTS for Agonists of the Human Mucolipin Transient Receptor Potential 1 (TRPML1) | activation, % (test concentration not listed) | 0.12% of 410,000 active | Mucolipin-1 (Homo sapiens), Q9GZU1 | TRPML1-expressing cells, Ca2+ dye fluorescence, FDSS; host cell line not named in the record; reference of the full effect not given here; in the data active = activation above about 50%; inconclusive = about 30% to 50%; inactive = below about 30%; also: 0% is about no effect; the text of the record puts the active cut at 80%
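Tetracycline-induced TRPML1-DL cells are seeded and incubated overnight before loading with a no-wash Ca2+ dye and quencher. Agonist activity is taken from the 110 s fluorescence read following compound pin-transfer on an FDSS, before EC80 54-4 challenge.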
An asterisk follows results filed as active; ? = inconclusive; . = not tested or not shown; & = joins results of further samples; [ ] = dose if it differs, or a comment. Not all compounds are listed; the hit share may differ from the screen's.

Start of the listing, in advance:
SMILES	PINK1 expr mod	TRPML1 blocker	CtBP-E1A inh	Six1-Eya2 inh	D2 ag	TRPML1 agonist
O=C(COC(=O)c1ccccc1)Nc1ccc(Cl)cc1C(=O)c1ccccc1	3.7%	9	-1	38	5.4	3.4
Cc1[nH]c2ccccc2c1C1=CCNCC1	21%[38.3 µM]	11	3	-11	2.8	-0.1

All compounds of this part, repeating the preview:
SMILES	PINK1 expr mod	TRPML1 blocker	CtBP-E1A inh	Six1-Eya2 inh	D2 ag	TRPML1 agonist
O=C(COC(=O)c1ccccc1)Nc1ccc(Cl)cc1C(=O)c1ccccc1	3.7%	9	-1	38	5.4	3.4
Cc1[nH]c2ccccc2c1C1=CCNCC1	21%[38.3 µM]	11	3	-11	2.8	-0.1
CCOC(=O)[C@]12Cc3ccccc3[C@H]1N(Cc1ccccc1)C(=O)c1cc(OC)ccc12	1.4%	.	-5	1	.	0.2
O=P(N1CCCCCC1)(N1CCCCCC1)N1CC1	-0.5%	2	10	4	2.4	-0.3
CCC1(CC)C(=O)N(Cc2ccccc2)C(=O)N(Cc2ccccc2)C1=O	3.4%[38.3 µM]	-12	0	-2	-0.6	-0.4
O=C(OCc1ccccc1)N1CCC2CC1c1cc(N3Cc4ccccc4-n4nncc4C3)ccc12 (stereo not drawn)	0.2%	32	-25	-29	-12	1.7
COc1cccc(C(c2nnnn2Cc2ccccc2)N2CCC3(CC2)C(=O)NCN3c2ccccc2)c1OC (stereo not drawn)	-0.6%	.	-9	-12	12	-0.6
Cc1ccccc1-n1c(/C=C/c2ccccn2)nc2ccccc2c1=O	0.8%	11	.	0	0.2	4.3
CCCCn1c(O)c(C(C)=Nc2cccc(C(=O)O)c2)c(=O)[nH]c1=O	4.3%[38.3 µM]	-1	4	1	-1.6	-0.6
Cc1nn(CC(C)C)c(Cl)c1C(=O)NC1CCC(C)CC1 (stereo not drawn)	1.0%	7	5	7	3.0	-0.8
O=C1c2ccccc2-c2cccc3cccc1c23	2.3%	-5	-20	-18	-2.3	3.8
COc1ccc(NC2(C#N)CCCCC2)cc1	0.0%	-11	7	5	-4.1	-0.3
Cn1c(C(=O)N2CCC(C(=O)N3CCC4(CC3)OCCO4)CC2)cc2sccc21	.	1	10	3	-1.3	0.1
CSc1ncc(CN2CCCC(C(=O)c3cccc(Cl)c3)C2)cn1 (stereo not drawn)	-0.1%	-11	1	-7	-2.5	1.7
Cc1cc(/C=C2\C(=O)NC(=O)N(C)C2=O)c(C)n1-c1ccc2c(c1)OCO2	-0.7%	36	-28	-23	1.2	-0.4
O=C(Cn1cnc2sc3c(c2c1=O)CCCC3)NCCCC(=O)N1CCC2(CC1)OCCO2	9.7%	14	-19	0	-2.9	0.3
Cn1c(O)c(C=NCCCN2CCCC2=O)c(=O)n(C)c1=O	9.4%[38.3 µM]	11	1	3	0.8	0.4
CN1CCN(c2ccc([N+](=O)[O-])c(Sc3ccccn3)c2)CC1	0.3%	-3	-2	2	-8.7	0.0
CCOC(=O)c1cc2ccccc2n1C1CCN(Cc2ccccc2)CC1	?	.	-11	-13	.	-0.8
CN(CCCCC(=O)/C=N/O)Cc1ccccc1 (tested in a mixture with another compound)	-1.6%	-9	0	-1	-3.3	-0.5
CCOC(=O)C1CCN(/C=C2/C(=O)NC(=O)N(Cc3ccco3)C2=O)CC1	-2.1%	10	-3	-28	-1.3	4.4
CC(C)N1CCN(c2ccc(O)cc2)CC1	0.1%	5	-3	-1	9.6	0.2
CSc1ccc(C(=O)C2CCCN(CCCn3cccn3)C2)cc1 (stereo not drawn)	-1.3%	-8	2	-1	-3.1	-0.4
Cc1cccc(N2CCC3(CC2)C(=O)NC(=O)NC3=O)c1	4.9%	-4	-2	3	-1.1	-0.5
O=C(c1ccc(C(F)(F)F)cc1)C1CCCN(Cc2ccncc2)C1 (stereo not drawn)	2.9%	6	10	0	2.4	-0.7

The last 2 compounds of the part before are carried over, then new ones follow.
SMILES	PINK1 expr mod	TRPML1 blocker	CtBP-E1A inh	Six1-Eya2 inh	D2 ag	TRPML1 agonist
Cc1cccc(N2CCC3(CC2)C(=O)NC(=O)NC3=O)c1	4.9%	-4	-2	3	-1.1	-0.5
O=C(c1ccc(C(F)(F)F)cc1)C1CCCN(Cc2ccncc2)C1 (stereo not drawn)	2.9%	6	10	0	2.4	-0.7
c1ccc2c(CCNCc3ccc4c(c3)OCO4)c[nH]c2c1	-3.1%	4	-1	-12	-2.9	-0.2
Cc1cccc(-c2nc3ccc(C(=O)N4CCC5(CC4)OCCO5)cc3nc2-c2cccc(C)c2)c1	5.7%	7	0	-7	-3.3	3.6
CCc1cccc2c(C#N)cn(CC(=O)N3CCOCC3)c12	-0.9%	-20	-2	-8	-2.3	0.0
CCOc1ccc(N=Cc2c(O)n(Cc3ccccc3)c(=S)[nH]c2=O)cc1	15%	-3	4	-9	-2.1	0.0
CCOC(=O)[C@]12Cc3cc(OC)ccc3[C@H]1N(C1CCCCC1)C(=O)c1cc(OC)ccc12	-1.4%	.	-6	-12	.	-0.4
O=C(c1ccco1)c1cn(Cc2ccc(Cl)cc2)c2ccccc12	1.0%	46	9	3	-3.3	4.1
CN1C(=O)C(C2(C#N)CCCCC2)C(=O)N(C)C1=O	8.4%[38.3 µM]	34	10	-1	-2.8	0.0
CCOc1ccc(NC(=O)N2C[C@H]3C[C@@H](C2)c2cccc(=O)n2C3)cc1	-0.9%	.	5	-3	-3.9	.
COc1cc2c(cc1OC)C(C1c3cc4c(cc3CCN1C)OCO4)OC2=O (stereo not drawn)	0.6%	-9	-11	1	-6.4	0.3
CC(Oc1ccc(-c2ccccc2)cc1)C(=O)O (stereo not drawn)	-1.4%	2	8	0	-0.8	0.3
CC(C)C/C(=N/O)c1cn(C)c2ccccc12	7.7%	-6	0	-8	-3.5	0.4
COc1cc2c(cc1OC)[C@H]1C(=O)c3ccc4c(c3O[C@H]1CO2)C[C@@H](C(C)(C)O)O4	-1.0%	5	-13	1	-2.8	0.8
COc1ccccc1N1C(=O)NC(=O)C2(Cc3cc(C)ccc3N(C)C2)C1=O (stereo not drawn)	0.4%	-3	0	-7	-5.7	-0.7
COc1ccc(N=Cc2c(O)n(Cc3cccs3)c(=O)[nH]c2=O)cc1	4.6%	-1	.	3	-2.0	0.7
Cc1cc(C)c(NC2=NCCS2)cc1C	2.2%	-8	1	21	-1.9	-0.7
CN(C)CC1CSCCC1(O)c1ccccc1 (stereo not drawn)	0.7%	8	4	-13	-2.1	-0.1
Cc1ccc(NP(=O)(Nc2ccc(C)cc2)Oc2ccccc2)cc1	2.3%	-8	5	-2	-0.1	1.2
CCOC(=O)CNC(=O)N1Cc2cc(-c3ccc(OC)cc3)ccc2-n2nncc2C1	-0.4%	.	1	-4	3.8	-0.9
CN(Cc1ccccc1)Cc1ccccc1OC(=O)N(C)C	-1.7%	2	5	1	-4.0	0.0
O=C(O)c1ccc2c(c1)C1C(Cl)C(Sc3ccccc3[N+](=O)[O-])CC1C(c1cccc([N+](=O)[O-])c1)N2 (stereo not drawn)	0.7%	-8	.	-21	2.8	-0.8
Cc1ccc(NC(=O)c2cn(CCC#N)nc2-c2ccc3c(c2)OCCO3)c([N+](=O)[O-])c1	-2.5%	28	-9	-11	1.4	1.3
Cc1c(C=C2C(=O)N(C)C(=S)N(C)C2=O)c2ccccc2n1CC(=O)NCC1CCCO1 (stereo not drawn)	2.2%	16	-8	-12	-11	-0.1
C[C@H](CO)N1C[C@H](C)[C@@H](CN(C)C(=O)Oc2ccc3ccccc3c2)OCc2cnnn2CCCC1=O	0.5%	.	-9	5	-2.3	.
Cc1ccc(-c2nc3ccccc3c(=O)n2-n2cccc2)cc1	-0.6%	10	2	4	-3.7	-1.2
COC(=O)C1=C(c2cccc(C#N)c2)C[C@@H]2CC[C@H]1N2C(=O)NCCOc1ccccc1Cl	0.9%	4	2	2	-5.0	-0.6
Going on with the list:
SMILES	PINK1 expr mod	TRPML1 blocker	CtBP-E1A inh	Six1-Eya2 inh	D2 ag	TRPML1 agonist
CCCCC(=O)N/N=C/c1c(O)n(CC)c(=S)[nH]c1=O	-3.2%	-1	0	-78*	6.2	-0.4
COC(=O)C1=C(c2cccc(OCc3ccccc3)c2)C[C@@H]2CC[C@H]1N2C(=O)NCc1ccccc1C(F)(F)F	-1.3%	2	-26	0	-0.1	2.4
Oc1ccc(C2NCc3ccccc3-n3cccc32)cc1Cl (stereo not drawn)	13%&-1.5%	-11&-9	-8&-3	-21&-5	-2.5&-1.7	0.9&0.1
O=C1NC(=O)C(CCc2ccncc2)(Cc2ccc3c(c2)OCO3)C(=O)N1CCc1ccccc1 (stereo not drawn)	.	?	-21	-10	-0.6	0.0
CC1CCCN(C(=O)CN2C3CCC2CC(O)(c2ccc(F)cc2)C3)C1 (stereo not drawn)	-0.8%	-17	2	10	1.1	-0.3
COc1ccc(OC)c(N2Cc3ccccc3C2=N)c1	-1.0%	7	-3	9	-4.2	-0.6
Cc1cc(-c2ccccc2)cc(C)[n+]1Cc1ccccc1	-1.3%	-23	1	3	-3.2	1.1
CN(C)[C@@H]1C(=O)C(C(N)=O)=C(O)[C@@]2(O)C(=O)C3=C(O)c4c(O)ccc(Cl)c4[C@@](C)(O)[C@H]3C[C@@H]12	?	.	-11	-7	6.8	.
CCN1C[C@]2(COC(=O)c3ccccc3N)CC[C@H](OC)C34[C@@H]5C[C@H]6[C@H](OC)[C@@H]5[C@](O)(C[C@@H]6OC)[C@@](O)([C@H]13)[C@@H](OC)[C@@H]42	1.9%	-3	.	0	-0.5	-0.4
CCOCCN1CCN(c2nnc3n2-c2ccc(Cl)cc2C(c2ccccc2Cl)=NC3)CC1	-1.2%	19	-3	-5	-4.0	-0.2
CN1CCN(CC(=O)Nc2ccc([N+](=O)[O-])cc2C(=O)c2ccccc2)CC1	2.8%	-7	3	-1	1.1	0.3
COc1ccc2c(c1)c(C(=O)CN1CCC3(CC1)OCCO3)c(C)n2Cc1ccccc1	-0.4%	-5	4	4	-3.6	-0.4
COC(=O)C1=C(c2cccc(C#N)c2)C[C@@H]2CC[C@H]1N2C(=O)N1CCC(C)CC1	2.9%	-1	0	13	-1.4	0.4
O=Cc1cn(Cc2ccc(Br)cc2)c2ccccc12	-1.0%	.	2	6	-1.7	.
CC(Cl)(Cl)/C(=N/P(=S)(N1CCOCC1)N1CCOCC1)N1CCOCC1	0.7%	14	.	-2	-1.8	3.1
C/C(=N\Nc1ccccc1)c1c(O)[nH]c(=O)[nH]c1=O	7.5%	2	3	2	-2.2	-0.8
CCOc1cc2c(cc1OCC)-n1cccc1C(c1cc(OC)ccc1F)NC2 (stereo not drawn)	0.3%	.	-1	-23	-4.3	.
CCOC(=O)[C@]1(C#N)[C@@H]2C=CC(C(C)=O)=CN2[C@@H](C(N)=O)[C@@H]1c1ccsc1	0.8%	24	6	-11	4.9	0.2
